VACV mCherry inh: vaccinia inhibition (mCherry reporter); Vaccinia virus mCherry reporter infection, fluorescence; about a quarter of the inactives have no number; 0.63% of 310,000 active; Potency, µM (titrated, usually from 36.5 µM), for inactives: top-dose activity change, negative = inhibition, most hits filed as inhibitors; active = well fitted inhibition curve with a large enough effect; inconclusive = small, poorly fitted or top-dose-only effect; inactive = no such curve, though single readings can be large or run the other way; tested in A549 cells; note: nearly all actives have a fitted effect of over 35% in size; inactives centre near -10
Vaccinia Venus: vaccinia inhibition (Venus reporter); 0.46% of 330,000 active; Potency, µM (titrated, usually from 36.5 µM), for inactives: top-dose activity change, negative = inhibition, hits mostly inhibitors; Vaccinia virus Venus reporter expression, fluorescence; active means well fitted inhibition curve with a large enough effect; inconclusive means small, poorly fitted or top-dose-only effect; inactive means no such curve, though single readings can be large or run the other way; tested in A549 cells; note: nearly all actives have a fitted effect of over 30% in size; inactives centre near -10
Starred values were filed as active, the others as inactive; i = inactive; ? = inconclusive; nt = no result given; & = joins results of further samples; [ ] = another dose, or the depositor's remark. % is set by controls: 0 for no effect and ±100 for the full control effect; potency is the fitted concentration of half-maximal effect.

Preview (2 entries):
Fields – VACV mCherry inh	Vaccinia Venus
CC(=O)SC1CC2=CC(=O)CC[C@@]2(C)C2CC[C@@]3(C)[C@@H](CC[C@@]34CCC(=O)O4)C12 (stereo not given in full)
 : i	-13.6%
C=CCOC(=O)C1=C(C)OC(N)=C(C#N)C1c1ccc(F)cc1 (stereo not given)
 : -6.8%	0.0%

This part in full, from the start:
Fields – VACV mCherry inh	Vaccinia Venus
CC(=O)SC1CC2=CC(=O)CC[C@@]2(C)C2CC[C@@]3(C)[C@@H](CC[C@@]34CCC(=O)O4)C12 (stereo not given in full)
 : i	-13.6%
C=CCOC(=O)C1=C(C)OC(N)=C(C#N)C1c1ccc(F)cc1 (stereo not given)
 : -6.8%	0.0%
Cc1ccc(S(=O)(=O)N(CC(=O)N=Nc2c(O)[nH]c3ccccc23)c2cccc(C)c2)cc1
 : ?	?
O=C1CCCN1CCCNC(=S)Nc1ccc(Nc2ccccc2)cc1
 : ?	-6.0%
CC(C)(C)NC(=O)NC(=O)COC(=O)c1ccc(OC(F)F)cc1
 : i	-5.9%
COc1ccc(-n2nc(C(=O)NCC(=O)N3CCN(c4cccc(Cl)c4)CC3)c3ccccc3c2=O)c(OC)c1
 : -17.5%	-5.7%
Oc1ccc(Br)cc1/C=N/N1CCCCC1
 : -3.6%	-4.1%
CC1CCN(C(=O)COC(=O)c2ccc(Br)o2)CC1
 : -12.2%	-3.5%
Cc1ccc(NC(=O)C(=O)NCC(c2cccnc2)N2CCN(Cc3ccccc3)CC2)cc1F (stereo not given)
 : -16.2%	-21.8%
COc1cc(OC)c(OC)cc1CN1CCc2nc(N3CCN(c4ncccn4)CC3)ncc2C1
 : -27.7%	-29.6%

Continued:
Fields – VACV mCherry inh	Vaccinia Venus
O=C(NCc1ccccc1)[C@@H]1CCCN1C(=O)[C@@H]1CCCN1C(=O)c1ccc(Cl)cc1Cl
 : -8.0%	-8.4%
O=C(CNS(=O)(=O)c1ccc(C(=O)N2CCOCC2)cc1)N1CCOCC1
 : 1.9%	-1.0%
COc1ccccc1CN1C(=O)c2cccc3cccc(c23)C1=O
 : -13.3%	-7.5%
CCC1(c2ccccc2)C(=O)NCNC1=O
 : -0.6%&-16.1%	-11.6%&-2.6%
Cc1nn(CCCC(=O)Nc2cccnc2Cl)c(C)c1[N+](=O)[O-]
 : i	18.3%
Cc1ccc(NC(=O)CSCC(=O)Nc2ccccc2N2CCCCC2)cc1
 : -28.7%	-28.6%
Cc1nc2ccc(S(=O)(=O)NCC(=O)Nc3ccc(F)cc3)cc2s1
 : -0.2%[7.34 µM]	-2.7%[7.34 µM]
O=C(COc1ccccc1[N+](=O)[O-])OCC(=O)c1ccc(Br)s1
 : -15.6%	6.4%
Cc1ccc(/C=N/Nc2ncc(Cl)cc2Cl)s1
 : -24.3%	-29.8%
CC(CN1CCNCC1)(NS(=O)(=O)c1ccccc1)c1ccccc1 (stereo not given)
 : nt	?

Whole records as entered above. Values in the order: VACV mCherry inh | Vaccinia Venus
`Cc1nn(CCCC(=O)Nc2cccnc2Cl)c(C)c1[N+](=O)[O-]` is listed as i | 18.3%
`COc1ccccc1CN1C(=O)c2cccc3cccc(c23)C1=O` is listed as -13.3% | -7.5%
`CCC1(c2ccccc2)C(=O)NCNC1=O` is listed as -0.6%&-16.1% | -11.6%&-2.6%
`Cc1nc2ccc(S(=O)(=O)NCC(=O)Nc3ccc(F)cc3)cc2s1` is listed as -0.2%[7.34 µM] | -2.7%[7.34 µM]
`O=C(CNS(=O)(=O)c1ccc(C(=O)N2CCOCC2)cc1)N1CCOCC1` is listed as 1.9% | -1.0%

Later entries.
Fields – VACV mCherry inh	Vaccinia Venus
O=C1C=C(N2CCN(c3ccccn3)CC2)C(=O)c2c(O)ccc(O)c21
 : ?	-27.4%
CCN(CC)CC(=O)NN=C(c1ccccc1)c1ccccc1
 : nt	-29.5%
CCNc1nc(NCC)nc(N/N=C/c2ccc([N+](=O)[O-])o2)n1
 : ?	?
COc1ccc(OC)c(S(=O)(=O)N2Cc3ccccc3CC2C(=O)Nc2ccc(C(C)=O)cc2)c1 (stereo not given)
 : -13.1%	-17.3%
COc1cccc(C=CC(=O)C=CC=Cc2ccccc2)c1
 : ?	4.0%
Cc1[nH]c2ccccc2c1/C=C/c1c(C)[nH]c2ccccc12
 : -14.4%	-20.9%
CCOC(=O)c1ccc(COC(=O)c2ccc3c(c2)-c2ccccc2C3=O)cc1
 : -13.6%	-4.9%
COc1ccc(CC2(C)OC(c3ccc(Cl)cc3)=NN2C(C)=O)cc1 (stereo not given)
 : -14.7%	-14.4%
COc1cccc(-c2nc(Cc3ccc(OC)c(OC)c3)no2)c1
 : -6.0%	0.0%
COc1cc(OC)c(-c2nn3c(-c4cc(C)[nH]n4)nnc3s2)cc1OC
 : ?	?

(listing goes on)
Fields – VACV mCherry inh	Vaccinia Venus
CCCCNC(=O)[C@@H]1CCCN1S(=O)(=O)c1cccc2cccnc12
 : i	-1.2%
CCOc1ccc(NC(=O)c2sc3nc4c(c(-c5ccccc5)c3c2N)C(=O)CC(C)(C)C4)cc1
 : -14.8%	-3.3%
O=C(c1ccco1)N1CCC2CC1c1c(Cl)cccc12 (stereo not given)
 : i	-12.8%
COc1ccccc1N(C(=O)c1ccncc1)c1nc(-c2ccc([N+](=O)[O-])cc2)cs1
 : ?	-24.9%
COCCNc1ccnc(-c2cccc(NS(C)(=O)=O)c2)n1
 : 9.6%	14.2%
Cc1oc(-c2ccc(Cl)cc2)nc1CS(=O)CC(=O)NCCN1CCCC1 (stereo not given)
 : i	-13.0%
COc1ccc(Oc2nc(C)cc(C)c2C#N)cc1
 : -11.9%	-4.9%
O=C(O)c1ccc(NC(=S)NC2CCCCC2)cc1
 : -10.6%	-3.3%
Cc1ccc(Cl)cc1N1CCN(C(=O)Cn2c(-c3cccs3)cc3cc(F)ccc32)CC1
 : -4.3%	-0.5%
Oc1cncc(-c2cccnc2)c1
 : i	-11.0%

Next results follow:
Fields – VACV mCherry inh	Vaccinia Venus
O=c1cc(CN2CCN(c3cccc(C(F)(F)F)c3)CC2)nc2sccn12
 : 6.4%[7.34 µM]	2.5%[7.34 µM]
O=C1CCCCN1CCC(=O)N1CCOc2ccc(C(O)C3CCCCC3)cc2C1 (stereo not given)
 : -11.0%	-7.7%
COc1ccccc1N1CCN(c2ccc(=O)n(CC(=O)Nc3ccc(F)c(F)c3)n2)CC1
 : -12.2%	-0.7%
CCOC(=O)c1c(C)nc2c(c1C)/C(=N/O)CC(C)(C)C2
 : ?	-19.0%
CCCc1nnc(NC(=O)CCS(=O)(=O)c2ccccc2)s1
 : ?	-27.3%
COc1cc([N+](=O)[O-])ccc1NC(=O)Cc1ccc(F)cc1
 : -16.2%	?
CCOc1ccc(NC(=O)CN(c2ccc(CC)cc2)S(=O)(=O)c2c(C)noc2C)cc1
 : -16.5%	-15.6%
CCCn1c(=N)n(CC(=O)c2ccc([N+](=O)[O-])cc2)c2ccccc21
 : -21.3%	-16.2%
COc1ccc(CCN2C(=O)CC(Cc3ccc(C)cc3)C2=O)cc1OC (stereo not given)
 : -0.7%	6.0%
O=C(NCCc1ccccc1)C1CCCN1C(=O)NCc1ccccc1 (stereo not given)
 : -14.2%	-1.8%

Carrying on:
Fields – VACV mCherry inh	Vaccinia Venus
COc1ccc2c(Cl)c(C(=O)NCCCn3ccnc3)sc2c1Cl
 : nt	?
COc1cccc(CC(=O)NC2CCCN(Cc3ccc(Cl)cc3)C2)c1 (stereo not given)
 : -11.3%	-14.7%
COc1ccc(-c2oc3ncn4nc(COc5ccc(Cl)cc5)nc4c3c2-c2ccc(OC)cc2)cc1
 : -2.8%	9.0%
CCOC(=O)c1c(C)c(C(=O)NCCCOC(C)C)c(C)n1C
 : i	-7.1%
Cc1nc(SCC(=O)Nc2ccccc2)c2oc3ccccc3c2n1
 : nt	-10.3%
Cc1nnsc1C(=O)NNc1c(Cl)cccc1Cl
 : -16.0%	-4.6%
CCCC(=O)NC(=S)NNC(=O)c1ccc([N+](=O)[O-])cc1
 : -3.5%	-7.6%
COc1ccc(CCNC(=O)Cn2ccc3cc(S(=O)(=O)N4CCCCC4)ccc32)cc1OC
 : -1.3%	-0.6%
COc1ccc(-c2noc(CCC(=O)Nc3ccc(C(F)(F)F)cc3)n2)cc1
 : -14.8%	-6.3%
CC1=NN(c2ccccc2)C(=O)C1N=Nc1ccc(N)cc1 (stereo not given)
 : -8.1%	-6.9%

Exported as a markdown table: entries from further up.
| molecule | VACV mCherry inh | Vaccinia Venus |
| --- | --- | --- |
| CCCC(=O)NC(=S)NNC(=O)c1ccc([N+](=O)[O-])cc1 | -3.5% | -7.6% |
| CC1=NN(c2ccccc2)C(=O)C1N=Nc1ccc(N)cc1 (stereo not given) | -8.1% | -6.9% |

Following part
Fields – VACV mCherry inh	Vaccinia Venus
COc1ccccc1CN(CC(=O)NCc1ccco1)C(=O)CNS(=O)(=O)c1ccccc1
 : nt	?
COc1cccc(NS(=O)(=O)c2cc3c(cc2C)NC(=O)CO3)c1
 : -1.3%	-9.9%
CC12CCC(C(=O)Nc3ncc([N+](=O)[O-])s3)(OC1=O)C2(C)C (stereo not given)
 : ?	-12.8%
Cc1ccc(C(=O)OCC(=O)Nc2c(Cl)cc(S(N)(=O)=O)cc2Cl)o1
 : -0.5%[7.34 µM]	-4.0%[7.34 µM]
COc1cccc(NC(=O)/C(C#N)=C\c2cn(Cc3ccc(Cl)cc3)c3ccccc23)c1
 : -19.1%	-6.9%
CNC(=O)c1ccc(N(Cc2ccccc2)S(C)(=O)=O)cc1
 : -12.2%	-12.2%
COc1ccc(CN2C(=O)NC(=O)/C(=C\c3cccc(OC)c3OC)C2=O)cc1
 : -5.9%	4.3%
CCOC(=O)C1CCCN(C(=O)c2ccc3c(c2)OCCO3)C1 (stereo not given)
 : -19.1%	-4.6%
O=C(c1ccc2c(=O)n(Cc3ccccc3)c(=S)[nH]c2c1)N1CCOCC1
 : -8.8%	4.3%
CCOc1ccc2nc(SCC(=O)NNC(=O)c3ccco3)c(C)cc2c1
 : -0.2%	-7.6%

(continued)
Fields – VACV mCherry inh	Vaccinia Venus
O=C(OC(C(=O)NCC1CCCO1)c1ccc(F)cc1)c1ccco1 (stereo not given)
 : -5.1%	-3.7%
Cc1ccc2c(c1)c1c(c(=O)n(Cc3ccccc3)c(=O)n1CC(=O)Nc1ccccc1C)n2C
 : -0.3%	-1.3%
CC1=C(C(N)=O)C(c2cccc(Br)c2)n2nc(SCc3ccccc3Cl)nc2N1 (stereo not given)
 : -5.8%	3.1%
O=C(NC(Cc1ccccc1)C(=O)O)/C(=C/c1ccccc1)NC(=O)c1ccco1 (stereo not given)
 : 3.6%	-10.0%
Cc1cc(C(=O)NCc2nc(-c3cccc(NC(=O)c4ccccc4)c3)oc2C)nc(C)n1
 : -11.8%	-5.2%
CN(C)/C=C(/C(=O)c1ccc(Cl)c(Cl)c1)S(C)(=O)=O
 : i	-14.2%
COCCNC(=O)c1ccc2c(c1)N(Cc1cc(C)ccc1C)C(=O)c1ccccc1S2(=O)=O
 : i	-13.4%
O=C(CCC1CCCN(C(=O)c2cccs2)C1)N1CCN(c2ccccn2)CC1 (stereo not given)
 : -1.6%	-5.7%
C=CCN1C(=O)c2ccc(C(=O)N(C)Cc3ccc(C)o3)cc2C1=O
 : -15.7%	-8.0%
COC(=O)CCN(C(=O)C12CC3CC(CC(C3)C1)C2)c1ccccn1
 : nt	-10.6%

Further structures
Fields – VACV mCherry inh	Vaccinia Venus
CC(C)(C)OC(=O)N1CCC(c2c(C(=O)Nc3ccc4c(c3)OCCO4)cnn2-c2ccc(F)cc2)CC1
 : -27.6%	-17.7%
COCCn1c(=S)[nH]c2cc(C(=O)NCc3ccccc3)ccc2c1=O
 : i	-7.1%
COc1ccc(C(=O)OCc2cc(=O)oc3c(C)c(C)ccc23)cc1S(=O)(=O)N1CCOCC1
 : i	-15.0%
CN(C)S(=O)(=O)c1cccc(NC(=S)N/N=C/c2ccc(O)c(O)c2O)c1
 : ?	8.1%
CC(C)CC(C(=O)Nc1ccccc1)N1C(=O)C2C3C=CC(C3)C2C1=O (stereo not given)
 : i	-10.3%
CC(NC(=O)Cc1ccc(S(=O)(=O)N2CCOCC2)s1)c1ccc(Br)cc1 (stereo not given)
 : -23.6%	-12.8%
COc1ccc(C(=O)Nc2cc(C(C)C)c(O)c(S(=O)(=O)c3ccc(Cl)cc3)c2C)cc1
 : 4.8%	-10.4%
COC(=O)c1cc(-c2ccc(C)o2)nc2ccccc12
 : -15.7%	4.0%

Two compounds picked at random from the list so far:
Fields – VACV mCherry inh	Vaccinia Venus
CC(C)CC(C(=O)Nc1ccccc1)N1C(=O)C2C3C=CC(C3)C2C1=O (stereo not given)
 : i	-10.3%
COCCn1c(=S)[nH]c2cc(C(=O)NCc3ccccc3)ccc2c1=O
 : i	-7.1%
